# High-throughput results: PubChem BioAssay, National Center for Advancing Translational Sciences (NCATS)
# TRPV1 PAM – human TRPV1 potentiation; potentiation, % at 8.33 µM; TRPV1-expressing cells, Fluo-8 calcium influx, capsaicin EC20 potentiation; host cell line not named in the record; control for the full effect not named in the record; Q8NER1; AID 540277; 320,000 tested, 0.02% active; active means potentiation above 80%; inconclusive means 30% to 80%; inactive means below 30%; also: 0% is about no effect
#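 Fluo-8 calcium influx in TRPV1-expressing cells, kinetic read (ex 480/em 520 nm). Compound added and read 3 min for agonist activity, followed by capsaicin at EC20 final and 2 min further read for enhancement.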
# D2 potentiator – human D2 receptor positive allosteric modulation; 360,000 tested, 0.23% active; potentiation, % (test concentration not listed); AID 624464; DiscoveRx D2 beta-arrestin cells, luminescence, 90 min; 100% = 57 uM dopamine signal; P14416; active = potentiation of 50% or more; inconclusive = 30% to 50%; inactive = 30% or less;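 also: compound concentration not given in the record; tested on top of an EC20 dose of dopamine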
# Target sequence (P14416 whole entry, looked up): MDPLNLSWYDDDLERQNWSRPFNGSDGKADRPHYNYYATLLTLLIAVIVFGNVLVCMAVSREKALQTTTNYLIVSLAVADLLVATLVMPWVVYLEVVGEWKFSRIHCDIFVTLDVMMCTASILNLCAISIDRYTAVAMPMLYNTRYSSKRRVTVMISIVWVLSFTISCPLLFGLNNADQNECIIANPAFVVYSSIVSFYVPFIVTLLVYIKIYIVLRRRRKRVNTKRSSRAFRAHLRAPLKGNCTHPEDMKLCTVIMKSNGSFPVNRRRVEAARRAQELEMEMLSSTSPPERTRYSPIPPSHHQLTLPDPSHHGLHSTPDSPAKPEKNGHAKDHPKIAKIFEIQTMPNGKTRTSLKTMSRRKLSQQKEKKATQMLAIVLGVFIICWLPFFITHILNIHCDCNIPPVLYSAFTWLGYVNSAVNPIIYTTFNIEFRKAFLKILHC
#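 D2 cells co-treated with compound plus 50 nM dopamine (EC20) for 90 min at 37 deg C to detect potentiation. Beta-arrestin recruitment was read as enzyme-fragment luminescence after 1 h at ambient temperature. Full response was set by 57 uM dopamine.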
# TRPML1 blocker – human mucolipin-1 channel inhibition | Q9GZU1 | TRPML1-inducible cells, Ca2+ dye fluorescence, FDSS; active compounds read low; inhibition of EC80 agonist-evoked calcium signal | activity change, negative = inhibition, % (test concentration not listed) | 390,000 tested, 0.02% active | AID 624415; in the data active means activity change below about -50%; inconclusive means about -30% to -50%; inactive means above about -30%;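 also: stimulus is agonist 54-4 at its EC80 concentration; % is scaled to controls: 0 for no effect and ±100 for the full control effect; compound concentration not given in the record; the text of the record puts the active cut at -80%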
# Target sequence (Q9GZU1 whole entry, looked up): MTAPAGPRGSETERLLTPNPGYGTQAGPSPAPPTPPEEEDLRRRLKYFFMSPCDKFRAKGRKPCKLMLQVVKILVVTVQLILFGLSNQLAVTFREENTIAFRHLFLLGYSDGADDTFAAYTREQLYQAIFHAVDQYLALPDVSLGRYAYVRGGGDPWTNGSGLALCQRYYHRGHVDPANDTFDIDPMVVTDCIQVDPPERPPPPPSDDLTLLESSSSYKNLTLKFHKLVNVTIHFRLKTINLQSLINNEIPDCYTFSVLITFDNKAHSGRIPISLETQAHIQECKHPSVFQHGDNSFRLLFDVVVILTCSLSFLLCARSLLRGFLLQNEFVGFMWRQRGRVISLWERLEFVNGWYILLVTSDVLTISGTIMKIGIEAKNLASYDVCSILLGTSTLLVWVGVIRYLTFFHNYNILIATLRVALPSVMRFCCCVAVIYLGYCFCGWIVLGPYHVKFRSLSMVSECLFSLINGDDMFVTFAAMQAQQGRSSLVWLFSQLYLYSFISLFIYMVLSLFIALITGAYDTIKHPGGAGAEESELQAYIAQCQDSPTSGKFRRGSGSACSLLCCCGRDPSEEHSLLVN
#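 Calcium fluorescence in TRPML1-DL cells induced overnight with Tet: a 110 s read after compound pin addition, then a 110 s antagonist read after challenge with 54-4 at 4 uM final (EC80).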
# TRPML1 agonist – human mucolipin-1 channel agonism. TRPML1-expressing cells, Ca2+ dye fluorescence, FDSS; host cell line not named in the record; reference of the full effect not given here. activation, % (test concentration not listed). 410,000 tested, 0.12% active. AID 624414; in the data active = activation above about 50%; inconclusive = about 30% to 50%; inactive = below about 30%; also: 0% is about no effect; the text of the record puts the active cut at 80%
#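 Cells: TRPML1-DL, 1X Tet inducer, ~16 h at 37 degrees C/5% CO2. Dye: ABD Ca8 no-wash + quencher, 45-90 min RT. Read: 10 s baseline, compound add, 110 s agonist phase; 54-4 EC80 (4uM final), 110 s antagonist phase.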
# Six1-Eya2 inh – blocks human Six1 binding to Eya2 | Q15475+O00167 | AlphaScreen GST-Six1/His-Eya2 binding, biochemical; active compounds read low; control for the full effect not named in the record | activity change, % (test concentration not listed) | 360,000 tested, 0.56% active; in the data active = activity change below about -65%; inconclusive = about -30% to -65%; inactive = above about -30%; also: % is scaled to controls: 0 for no effect and ±100 for the full control effect
#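 AlphaScreen with GST-Six1 and His-Eya2 (5X mix: 250 nM and 500 nM), glutathione donor and nickel acceptor beads; buffer 50 mM Tris pH 8.0, 300 mM NaCl, 1 mM TCEP; 1 h at 37 C in the dark.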
# CtBP-E1A inh – blocks the CtBP interaction with E1A; AlphaScreen GST-E1A/His-CtBP binding, 1536-well; active compounds read low; control for the full effect not named in the record; activity change, % (no concentration beside the values); 340,000 tested, 0.49% active; AID 651724; in the data active means activity change below about -65%; inconclusive means about -30% to -65%; inactive means above about -30%; also: % is scaled to controls: 0 for no effect and ±100 for the full control effect
#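 Protein mix (5X: 125 nM each GST-E1A, His-CtBP) was incubated with pinned compound 2 h at 37 deg C in dark, in 50 mM Tris pH 8.0 buffer with 300 mM NaCl. Glutathione donor and nickel acceptor beads followed; AlphaScreen signal read after 1 h.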
# Starred values were filed as active, the others as inactive; ? = inconclusive; . = not tested or not shown; & = joins results of further samples.
# Value order – TRPV1 PAM	D2 potentiator	TRPML1 blocker	TRPML1 agonist	Six1-Eya2 inh	CtBP-E1A inh
1	Cc1ccc(S(=O)(=O)N2CCN(S(C)(=O)=O)C2)cc1
→ 5	-8	-8	-0.3	0	0
2	CNC(=O)c1cc(C(=O)c2c(Cl)cccc2Cl)c[nH]1
→ 2	2	8	1.1	1	-6
3	CCCCn1c(NC(=S)Nc2ccccc2)nc2ccccc21
→ 12	-12	29	0.7	-14	-15
4	COc1ccc(S(=O)(=O)N2CCN(c3ccc(F)cc3)CC2)cc1C(=O)N1CCOCC1
→ 2	4	-9	-0.8	1	-6
5	CCc1cc2ccc(OC)cc2nc1SCC(=O)Nc1cc(C)on1
→ 12	-14	24	0.9	1	1
6	CC(=O)c1cnn(-c2cc(Oc3ccc(F)cc3)ncn2)c1C
→ 7	-10	12	1.0	-13	0
7	CCOc1ccc(NC(=O)Cn2cc(C(C)=O)c3ccccc32)cc1
→ 18	-6	6	-0.6	-10	6
8	Cc1ccccc1C(=O)NNC(=O)CSc1nc(-c2ccccc2)cc(=O)[nH]1
→ 5	1	15	1.1	3	-7
9	N#Cc1ccc(N2Cc3ccccc3C2=NC(=O)c2cccnc2Cl)cc1
→ -6	4	-8	-0.3	10	0
10	Cc1ccc(C(=O)NCCNC(=O)c2ccc(C)o2)o1
→ 15	-12	-12	-0.3	-1	2
11	Cc1cc(N=Nc2ccccc2)cc(C)c1NC(=O)C(F)(F)F
→ .	-7	-6	3.7	-22	?
12	Cc1cccn2c(CN(C)C3CCOC3)c(C(=O)N3CCCCC3)nc12 (configuration not stated)
→ -4	-3	-11	0.0	5	9
13	O=C(COC(=O)C1Cc2ccccc2CN1C(=O)c1ccccc1)Nc1ccc(SC(F)F)cc1 (configuration not stated)
→ 10	-6	-1	-0.1	5	5
14	CCc1ccc(N2CCN(CCNC(=O)Nc3ccc(OC)cc3)CC2)cc1
→ -22	-10	24	-0.8	-13	.
15	CCOC(=O)CN1N=C(/C=C/c2ccc(OC)cc2)CCC1=O
→ .	-5	0	-0.7	8	-1
16	COc1cc(/C(C)=N/N2CCN(c3ccccc3OC)CC2)ccc1O
→ 11	-3	10	0.1	0	-1
17	Clc1ccc(-c2nc(Cc3ccccc3Cl)no2)cc1
→ 17	-1	9	0.9	34	25
18	CC(C)(C)OC(=O)N1CCc2onc(-c3ccc(Cl)cc3)c2C1=O
→ .	-1	-8	1.1	5	-5
19	Cc1ccc(Nc2nc(N)nc(-c3oc4ccccc4c3C)n2)cc1
→ -14	-9	14	0.1	-11	-7
20	CN(C)C(=O)c1ccccc1-c1ccccc1
→ 10	-7	28	0.2	4	12
21	FC(F)Sc1ccc(N=C2NN=C(c3ccc4c(c3)OCCO4)CS2)cc1
→ 19	-3	-4	-0.6	-13	-17
22	COc1cc(NC(=S)NC(=O)c2ccc(C(C)(C)C)cc2)ccc1NC(=O)c1cccs1
→ 1	-7	-15	0.8	-2	.
23	Cc1cc(NC(=O)c2cc(-c3ccc(Br)cc3)on2)no1
→ 4	-4	-9	-0.2	3	1
24	Cc1noc(C)c1COc1ccc(C(=O)OCC(=O)c2ccc3c(c2)OCCO3)cc1
→ 17	2	29	-0.7	3	0
25	COC(=O)c1ccccc1NC(=S)NC(=O)COc1ccccc1Cl
→ 9	-14	23	1.8	8	5
26	O=S(=O)(c1ccc(SCc2ccccc2F)nc1)N1CCCC1
→ -5	-2	17	3.5	21	29
27	CCOc1ccc(CCNC(=O)COC(=O)c2cc([N+](=O)[O-])ccc2N2CCOCC2)cc1OCC
→ -10	-3	1	0.1	-4	-4
28	COc1ccccc1NS(=O)(=O)c1cccc(C(=O)N2CCN(C/C=C/c3ccccc3)CC2)c1
→ 8	-1	-2	1.0	-8	-5
29	COC(=O)[C@@H]1C[C@H]2CC[C@H](O)C[C@H]2N1Cc1ccc(C(C)(C)C)cc1
→ 8	-9	?	1.0	-4	-18
30	Cc1ccc(-c2nn3nnnc3c3ccccc23)cc1C
→ -10	-9	1	-0.1	-2	9
31	Cc1cc(C(=O)OCC(=O)N2CCOCC2)c2ccccc2n1
→ 12	-26	24	3.5	2	-1
32	CC1CCN(C(=O)C2CCN(c3nnc(-n4cccc4)s3)CC2)CC1
→ -23	-9	-6	-0.9	0	-6
33	CCOC(=O)c1sc(N/N=C/c2cc(Br)c(O)c(OC)c2)nc1C
→ -3	51*	.	.	-15	.
34	CCOC(=O)C(NCCc1ccccc1F)(NC(=O)CC)C(F)(F)F (configuration not stated)
→ 3	3	0	0.5	13	0
35	COc1cc2nc(CN3CCN(S(=O)(=O)c4ccccc4)CC3)[nH]c(=O)c2cc1OC
→ -6	-26	2	-0.3	-19	-7
36	O=C(CCn1c(=O)c2sccc2n(CC(=O)NCc2ccco2)c1=O)NCc1ccccc1
→ 1	2	103	0.2	0	53
37	CC1=NN2C(=N)/C(=C\c3cc(C)n(-c4ccc(C)cc4)c3C)C(=O)N=C2S1
→ -6	-6	8	-0.5	4	6
38	O=C(Nc1nnc(-c2ccco2)o1)c1ccc2ccccc2c1
→ 14	-20	-13	0.9	-18	-19
39	CC(C)C1C(=O)N(Cc2cn(CCC3OCCO3)nn2)CCS(=O)(=O)N1Cc1ccc(-c2cccc(N(C)C)c2)cc1 (configuration not stated)
→ .	-6	12	0.0	-20	-6
40	CC(C)(C)c1cc2nc3c(c(=O)n2[nH]1)CN(Cc1ccccc1)C3=O
→ 23	-1	4	5.5	-7	-2
41	Cc1oc2ccc(OS(C)(=O)=O)cc2c1C(=O)OC(C)C
→ 1	-2	-19	1.7	12	11
42	CCc1nc2nc(C)c(NS(=O)(=O)c3ccc(Br)s3)c(=O)n2[nH]1
→ ?	11	3	0.9	1	-22
43	COc1ccc2cc([C@H](C)C(=O)O)ccc2c1
→ 11	-3	-2	-0.6	3	3
44	O=C(Nc1ccc2c(c1)OCO2)C1Cc2c(-c3cccnc3)ccnc2O1 (configuration not stated)
→ .	-11	5	0.6	0	1
45	CCOc1ccc(CNS(=O)(=O)c2ccc(-c3coc(C)n3)cc2)cc1
→ 0	.	-25	3.4	.	.
46	O=C(CC(Nc1ccc(F)cc1)C(=O)OCC(=O)c1cccs1)c1ccccc1 (configuration not stated)
→ -6	-4	41	-0.1	-8	0
47	CCOC(=O)CSc1ccc(S(=O)(=O)N2CCC(C)CC2)cc1[N+](=O)[O-]
→ -3	-3	60	-0.2	0	-2
48	Cc1cc(NC(=O)c2ccc(F)cc2)n(-c2ccccn2)n1
→ -10	-12	-1	-0.7	-15	-16
49	CC1=C(C(=O)Nc2ccccc2)C(c2ccccc2)N2C(=O)CSC2=N1 (configuration not stated)
→ ?	-11	21	0.6	-1	-3
50	Cc1nc(S(=O)(=O)Nc2ccc3c(c2)OCCO3)cn1C
→ -12	-8	-2	0.4	5	9
51	Cc1nn(-c2ccccc2)c(C)c1NC(=O)Cc1cccs1
→ 6	-4	-4	-0.1	0	3
52	O=C(Cc1cccs1)Nc1nnc(SCC(=O)N2CCCCC2)s1
→ 9	-1	-18	0.5	-1	5
53	CCC(C)C(=O)Nc1ccc([N+](=O)[O-])cc1OC (configuration not stated)
→ -5	-1	14	0.2	7	4
54	COc1ccc(C(=O)NCC2CCCCC2)cc1S(=O)(=O)N1CCCC1
→ -7	-3	14	2.4	2	3
55	Cc1ccc(P(=O)(CO)c2ccc(C)cc2)cc1
→ 7	-7	-12	2.2	0	9
56	CCOc1ccc(NC(=O)CN(C)C(=O)c2cccnc2SC)cc1OCC
→ -4	5	37	-0.2	2	-5
57	CNC(=O)c1cccc(NC(=O)CCCNC(=O)c2ccc(Cl)cc2)c1
→ 11	-8	34	0.3	2	-1
58	Cc1cccc(NC(=O)CN2C(=O)N/C(=C/c3cc(C)n(-c4ccncc4)c3C)C2=O)c1
→ -2	-5	9	-0.2	1	6
59	O=C(COC(=O)Cc1ccc(Br)cc1)NCc1ccc(F)cc1
→ 0	-6	-12	1.7	12	9
60	Cc1ccc(S(=O)(=O)N2C[C@H]3[C@H]4C(=O)N(c5ccccc5)C(=O)[C@H]4C[C@H](OC(=O)NC4CC4)[C@@]3(O)C2)cc1
→ .	-3	19	-0.2	15	1

# Next part.
# Value order – TRPV1 PAM	D2 potentiator	TRPML1 blocker	TRPML1 agonist	Six1-Eya2 inh	CtBP-E1A inh
61	CCc1cc(=O)oc2cc3occ(C)c3cc12
→ -7	-6	-18	1.9	2	2
62	O=C(Nc1ccc(NC(=O)c2ccco2)nc1)c1ccccn1
→ -8	3	-4	1.5	-4	1
63	Cc1cc(C)c(C)c(S(=O)(=O)N2CCC(C(=O)NCc3cccs3)CC2)c1C
→ .	-16	8	-0.5	-4	5
64	C=CCSc1nc(-c2ccc3c(c2)OCO3)cc(C(F)(F)F)c1C#N
→ 23	-22	-5	0.0	10	-6
65	COCCCN(C(=S)NC(=O)c1ccc(Br)cc1)c1c(N)n(Cc2ccccc2)c(=O)[nH]c1=O
→ 1	-38	9	-0.9	2	-1
66	CC(C)CCNC(=O)CCCC1=NS(=O)(=O)c2ccccc2N1
→ 18	-14	-4	0.0	-1	0
67	Cc1ccc(NC(=O)CC(C)S(=O)(=O)c2ccc3c(c2)NC(=O)CO3)c(Cl)c1 (configuration not stated)
→ -13	5	-17&-6	-1.3&4.5	-1	0
68	COc1ccc(S(=O)(=O)Nc2nnc(CC(C)(C)C)s2)cc1
→ -2	6	-12	-0.9	10	-4
69	C=CCNC(=O)C1(c2ccccc2)CC1(Cl)Cl (configuration not stated)
→ -11	-7	5	-0.4	8	-4
70	CC(=O)c1sc2nc(-c3ccc(C)cc3)c3c(c2c1N)CCCC3
→ -4	3	26	0.1	31	15
71	c1ccc(-c2cnc(C3CCCCC3)o2)cc1
→ .	-3	4	1.1	6	2
72	O=C(CCn1nnnc1CN1CCOCC1)N1CCC(c2ccccc2Cl)C1 (configuration not stated)
→ -12	-4	1	0.0	0	-5
73	Cc1cccc(N2CCN(C(=O)c3ccccc3OCc3c(C)noc3C)CC2)c1C
→ -17	-12	10	0.7	-1	-13
74	O=C(NCC(c1ccco1)N1CCCC1)c1cccc(S(=O)(=O)Nc2ccc(Br)cc2)c1 (configuration not stated)
→ 2	-16	11	1.8	1	5
75	Cc1cc(N2CCN(C)CC2)nc2ccc(NC(=O)c3ccc(Br)o3)cc12
→ 1	-17	0	-0.6	-3	1
76	COc1ccc(CC(=O)NCC(=O)NCc2cc(=O)n(C)c(=O)n2C)cc1
→ 7	-4	1	0.2	3	1
77	CC(=O)n1cc([C@@H]2C=C(C(=O)N3CCN(Cc4ccc5c(c4)OCO5)CC3)O[C@H](OCc3ccc(CO)cc3)C2)c2ccccc21
→ -8	-27	10	-0.8	-10	-1
78	CC(Sc1nc2ccccc2s1)C(=O)NC1CCCc2ccccc21 (configuration not stated)
→ -3	-5	12	-0.5	10	3
79	CCOc1ccc(NC(=O)C(=O)NCCCn2ccnc2)cc1
→ 3	-10	-1	-0.2	-1	9

# Full records as entered above. Order of values: TRPV1 PAM, D2 potentiator, TRPML1 blocker, TRPML1 agonist, Six1-Eya2 inh, CtBP-E1A inh
# `CC(Sc1nc2ccccc2s1)C(=O)NC1CCCc2ccccc21` (configuration not stated) across the screens: -3, -5, 12, -0.5, 10, 3
# `c1ccc(-c2cnc(C3CCCCC3)o2)cc1` across the screens: ., -3, 4, 1.1, 6, 2
